High-throughput results (PubChem BioAssay)
ClpP mod – qHTS Assay for Activators of ClpP; ATP-dependent Clp protease proteolytic subunit (Bacillus subtilis (strain 168)), P80244; purified B. subtilis ClpP, FRET peptide cleavage, 20 min; Potency, µM (doses to about 57.5 µM), inactives show top-dose activity change, negative = active; 1.9% of 340,000 active; AID 651965, 2013; active = well fitted falling curve with a large enough effect; inconclusive = small, poorly fitted or top-dose-only effect; inactive = no such curve, though single readings can be large or run the other way; also: potency is read from the fitted curve at half-maximal effect; the source files actives as falling curves though it sought activators and does not explain the sign; nearly all actives have a fitted effect of over 65% in size; many hits overshoot -100%
Target sequence (P80244 whole entry, looked up): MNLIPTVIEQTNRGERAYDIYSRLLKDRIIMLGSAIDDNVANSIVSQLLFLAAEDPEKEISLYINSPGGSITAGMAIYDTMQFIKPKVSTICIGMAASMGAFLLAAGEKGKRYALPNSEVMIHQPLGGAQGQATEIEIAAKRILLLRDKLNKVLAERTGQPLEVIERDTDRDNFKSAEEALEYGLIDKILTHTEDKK
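Buffer: 100 mM Tris/HCl pH8, 100 mM KCl, 0.05% low protease BSA, 2.5% glycerol, 0.01% Tween-20. ClpP 10 microg/mL final; 20 min RT; delta FRET normalized to ADEP and DMSO controls.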
TRPML1 agonist – qHTS for Agonists of the Human Mucolipin Transient Receptor Potential 1 (TRPML1). Mucolipin-1 (Homo sapiens), Q9GZU1. TRPML1-expressing cells, Ca2+ dye fluorescence, FDSS; host cell line not named in the record; reference of the full effect not given here. activation, % (no concentration beside the values). 0.12% of 410,000 active; in the data active = activation above about 50%; inconclusive = about 30% to 50%; inactive = below about 30%; also: 0% is about no effect; the text of the record puts the active cut at 80%
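Agonist activity was taken from a 110 s kinetic Ca2+ dye read on the FDSS after pinning compounds onto TRPML1-DL cells. The cells were seeded at 1,500/well with Tet inducer, incubated about 16 h, then dye-loaded at room temperature.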
PINK1 expr mod – A Quantitative High throughput Screen to Identify Chemical Modulators of PINK1 Expression; Potency, µM (series often up to 76.6 µM), for the others: at the highest dose activation (PINK1 increase), most hits filed as activators; PINK1 immunofluorescence, high-content cytometry, 24 h; 0.2% of 410,000 active; active = well fitted activation curve with a large enough effect; inconclusive = small, poorly fitted or top-dose-only effect; inactive = flat fitted curve, though single readings scatter; cell line not stated here;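 also: potency is read from the fitted curve at half-maximal effect; % of control where 0% means no effect; nearly all actives have a fitted effect of over 65% in size; a mitochondrial uncoupler was the plate control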
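A stable cell line was treated with compounds at 5 concentrations for 24 hours, with CCCP as control. PINK1 levels and mitochondrial localization were measured by immunofluorescence with mitochondrial, cell and nuclear markers after fixation, read by laser-scanning cytometry.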
Sfp PPTase inh – qHTS Assay for Inhibitors of Bacillus subtilis Sfp phosphopantetheinyl transferase (PPTase); Potency, µM, for the others: max response, negative = inhibition, usual class: inhibitors; AID 1490, 2009; 3.5% of 310,000 active; 4'-phosphopantetheinyl transferase ffp (Bacillus subtilis), Q9F4F7; Biochemical Sfp PPTase activity, qHTS; active = well fitted inhibition curve with a large enough effect; inconclusive = small, poorly fitted or top-dose-only effect, or another doubt; inactive = no such curve, though single readings can be large or run the other way;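 also: the enzyme is Sfp with the accession as filed and its product quenches rhodamine fluorescence; potency is read from the fitted curve at half-maximal effect; 0% = enzyme reaction without inhibitor and -100% = no enzyme wells; top concentration of the series not given in the record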
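Buffer: 50 mM Hepes-Na pH 7.6, 10 mM MgCl2, 0.01% Nonidet P-40, 0.01% BSA. Enzyme 15 nM, pre-exposed to compound 15 min; substrates then added and fluorescence change tracked over 30 min.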
TRPML1 inh – qHTS for Inhibitors of the Human Mucolipin Transient Receptor Potential 1 (TRPML1); 0.02% of 390,000 active; TRPML1-inducible cells, Ca2+ dye fluorescence, FDSS; stronger effect = lower value; inhibition of EC80 agonist-evoked calcium signal; activity change, negative = inhibition, % (concentration not given with the values); Mucolipin-1 (Homo sapiens), Q9GZU1; in the data active means activity change below about -50%; inconclusive means about -30% to -50%; inactive means above about -30%;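 also: stimulus is agonist 54-4 at its EC80 concentration; % is scaled to controls: 0 for no effect and ±100 for the full control effect; compound concentration not given in the record; the text of the record puts the active cut at -80%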
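Calcium fluorescence in TRPML1-DL cells induced overnight with Tet: a 110 s read after compound pin addition, then a 110 s antagonist read after challenge with 54-4 at 4 uM final (EC80).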
TRPV1 PAM – HTS Assay for Compounds that Act as Potentiators of the Vanilloid Receptor 1 | Transient receptor potential cation channel subfamily V member 1 (Homo sapiens), Q8NER1 | TRPV1-expressing cells, Fluo-8 calcium influx, capsaicin EC20 potentiation; host cell line not named in the record; control for the full effect not named in the record | potentiation, % at 8.33 µM | 0.02% of 320,000 active; active means potentiation above 80%; inconclusive means 30% to 80%; inactive means below 30%; also: 0% is about no effect
Target sequence (Q8NER1 whole entry, looked up): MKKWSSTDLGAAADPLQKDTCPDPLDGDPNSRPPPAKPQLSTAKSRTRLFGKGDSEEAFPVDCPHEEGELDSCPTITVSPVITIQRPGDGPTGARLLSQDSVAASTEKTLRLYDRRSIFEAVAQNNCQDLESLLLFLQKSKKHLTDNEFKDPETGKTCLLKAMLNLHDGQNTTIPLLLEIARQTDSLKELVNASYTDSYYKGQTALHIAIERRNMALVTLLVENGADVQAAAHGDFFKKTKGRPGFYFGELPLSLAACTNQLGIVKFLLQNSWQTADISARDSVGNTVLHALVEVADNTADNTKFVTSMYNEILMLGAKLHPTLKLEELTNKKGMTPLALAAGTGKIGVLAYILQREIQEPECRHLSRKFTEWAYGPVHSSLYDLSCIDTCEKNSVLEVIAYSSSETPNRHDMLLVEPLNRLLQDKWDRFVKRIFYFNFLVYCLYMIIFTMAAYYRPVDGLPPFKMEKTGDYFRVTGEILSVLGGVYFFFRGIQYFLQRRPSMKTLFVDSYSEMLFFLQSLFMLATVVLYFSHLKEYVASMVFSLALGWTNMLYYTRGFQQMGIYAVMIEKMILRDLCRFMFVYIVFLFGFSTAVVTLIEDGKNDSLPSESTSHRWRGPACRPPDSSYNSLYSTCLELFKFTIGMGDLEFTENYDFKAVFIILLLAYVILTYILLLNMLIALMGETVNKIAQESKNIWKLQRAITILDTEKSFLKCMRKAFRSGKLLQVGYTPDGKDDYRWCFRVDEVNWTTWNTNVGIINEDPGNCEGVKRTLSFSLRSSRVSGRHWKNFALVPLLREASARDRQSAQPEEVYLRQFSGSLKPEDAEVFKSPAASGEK
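Fluo-8 calcium influx in TRPV1-expressing cells, kinetic read (ex 480/em 520 nm). Compound added and read 3 min for agonist activity, followed by capsaicin at EC20 final and 2 min further read for enhancement.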
Menin MLL FP FL – qHTS Assay for Inhibitors Targeting the Menin-MLL Interaction in MLL Related Leukemias: Competition With Fluorescein Labeled MLL-derived Peptide; Fluorescence polarization, fluorescein-MLL peptide displacement from menin; FP activity change, % at 61.4 µM; 290,000 tested, under 10 active; inconclusive = falling polarisation curve, or a change in total fluorescence; inactive = total fluorescence flat and polarisation flat or rising; no compound was filed as active; the % refers to the polarisation; negative = inhibition;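 also: % of control where 0% means no effect; inhibitors lower the polarisation; unlabelled MLL peptide was the positive control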
* hit, by the source's call; u = inconclusive; x = no result given; & = joins results of further samples; [ ] = dose if it differs, or a comment. Rows were taken by chance; about 4.4% have a hit in one of these screens.

SMILES | ClpP mod | TRPML1 agonist | PINK1 expr mod | Sfp PPTase inh | TRPML1 inh | TRPV1 PAM | Menin MLL FP FL
COC(=O)C1=C(C)N(CC2CC2)C(=O)N[C@H]1c1ccc(Br)cc1 | 1.7% | 0.0 | 2.1% | 12.8%&5.9% | 4.4 | -4.1 | 1.6&0.4
O=C(NNc1ncnc2c1cnn2-c1ccc(F)cc1)c1cccs1 | x | -0.9 | 2.1% | 27.5% | 5.2 | 4.0 | -1.2
Cn1c(/C(C#N)=C(\O)c2ccc([N+](=O)[O-])cc2)nc2ccccc21 | 0.1% | -0.2 | 3.4% | 18.5% | -15.5 | 0.8 | 0.7
Cc1ccc2nc(Nc3ncc4c(n3)CCCC4=O)nc(C)c2c1 | x | x | x | 8.1% | x | 11.3 | u
O=C(O)CCC(=O)Nc1nc2nccc(-c3ccccc3)n2n1 | x | -0.2 | -0.6% | 24.2% | -1.4 | -9.0 | 2.9
CCOC(=O)C(=O)NCC(c1cccs1)S(=O)(=O)c1ccc(C)cc1 (configuration not stated) | x | 0.9 | -1.0% | x | -6.5 | 0.9 | x
N#Cc1c(SCC(=O)Nc2nccs2)sc2c(O)cc(=O)[nH]c12 | 0.1% | 1.5 | -0.3% | 39.8µM* | -4.2 | -9.3 | 28.5
O=c1c2ccccc2nc2n1CC/C2=C\N1CCN(c2ccc([N+](=O)[O-])cc2)CC1 | x | 0.5 | 6.8% | x | -21.9 | x | x
N#Cc1nc(/C=C/c2ccc(F)cc2)oc1NCc1ccc(F)cc1 | 4.0% | -1.4 | 10.0% | x | 0.5 | x | x
C[C@H](CO)N1C[C@H](C)[C@@H](CN(C)S(=O)(=O)c2cccs2)Oc2ccc(NS(=O)(=O)c3ccccc3)cc2CC1=O | -0.1% | 0.1 | 2.0% | x | 3.0 | x | x
O=C1SCC(c2ccc(Cl)cc2Cl)=NN1Cc1nnc(-c2ccccc2)o1 | -10.7% | 2.8 | 1.5% | 0.8% | -1.4 | -2.3 | -0.6
Cc1ccc(S(=O)(=O)NCC(=O)N(CC(=O)NCC2CCCO2)Cc2ccccc2)cc1 (configuration not stated) | 1.5% | -1.1 | -0.6% | 8.5% | -10.5 | -2.3 | 2.8
CCc1ccc(C(=O)Nc2ccc(OC)c(S(=O)(=O)N3CCOCC3)c2)cc1 | x | -0.4 | 1.0% | 29.5% | 41.0 | -1.3 | 1.3
COC(=O)c1sc2ncccc2c1-n1c(C)ccc1C | 0.9% | 1.1 | -0.9% | x | 3.2 | x | x
Cc1ccc(CN2CC(C(=O)Nc3ncccc3C)CC2=O)cc1 (configuration not stated) | -2.8% | -0.5 | 2.5% | 3.2% | 16.7 | -3.9 | 1.4
CC(C)Oc1ccc(C(=O)N(Cc2ccco2)c2ccccn2)cc1 | 0.8% | -0.8 | 0.0% | x | -10.8 | x | x
O=C(/C=C/c1ccc(Cl)cc1Cl)N(Cc1ccc(Cl)cc1)C1CCS(=O)(=O)C1 (configuration not stated) | 1.8% | 0.0 | -0.6% | 3.5% | -4.9 | 9.9 | 0.4
Cc1[nH]n(-c2ccccc2)c(=O)c1N=Nc1cccc(S(=O)(=O)N2CCOCC2)c1 | -2.6% | 1.1 | -1.2% | 2.3% | 22.6 | -7.5 | 0.8
O=C(CCN1C(=O)/C(=C/c2cccs2)SC1=S)NC1=NCCS1 | 1.4% | -0.3 | 4.4% | 7.3% | 1.2 | u | 6.4
CCOc1ccc(NC(=O)CN(C)C(=O)CN2C(=O)C3CC=CCC3C2=O)cc1OCC (configuration not stated) | x | 0.2 | 1.7% | x | 9.7 | -6.5 | x
O=C(Cn1nc(C(=O)O)c2ccccc2c1=O)Nc1ccccc1C(F)(F)F | x | 0.0 | 0.7% | -9.5% | -8.7 | 3.0 | -1.1
COc1ccc(S(=O)(=O)N2CCCCC2)cc1NC(=O)c1cc([N+](=O)[O-])ccc1N1CCOCC1 | -1.0% | 0.6 | 4.1% | x | -11.1 | 0.1 | x
COc1cccc(OC)c1C(=O)Nc1nnc(C(C)C)s1 | -5.2% | 0.3 | x | 9.3% | -9.4 | 4.7 | -1.1
COC(=O)c1cccc(S(=O)(=O)N2CCCCC2)c1 | -1.8% | 1.3 | u | 12.0% | 16.1 | -9.9 | 1.5
O=C(CCCn1c(=S)[nH]c2cc3c(cc2c1=O)OCO3)N1CCN(c2ccccn2)CC1 | 4.3% | 3.3 | 1.3% | 6.8% | 12.5 | 1.6 | 3.8
Cc1cccc(C)c1NC(=S)N1CCC(N(C)CC2CCCO2)CC1 (configuration not stated) | -0.7% | 0.0 | 9.8%[38.3 µM] | 15.5% | 7.8 | 1.8 | -0.2
CCCN1C(=O)c2ccccc2NC1c1ccc(Cl)cc1 (configuration not stated) | 3.9% | -0.5 | -0.7% | 0.6% | 8.1 | -15.4 | -3.1
Cc1cc(O)c(NC(=S)NC(=O)c2ccc(-c3ccc(Cl)cc3)o2)cc1C | u | 0.8 | 1.1% | u | -20.5 | -8.2 | 3.4
CCOc1ccc(C(c2c(NC(=O)c3ccccc3)sc(C)c2C)N2CCN(C)CC2)cc1 (configuration not stated) | -10.3% | -0.1 | 11.5% | -18.0% | 2.6 | -1.8 | 2.2
Cc1ccc(S(=O)(=O)N(C)C)cc1NC(=O)COC(=O)CCCOc1ccccc1 | -0.4% | 0.3 | 2.0% | 6.7% | 19.1 | 7.3 | 3.5
COc1cc(/C=C(/Sc2nnc(-c3ccc(F)cc3)o2)C(=O)O)ccc1OC(F)F | x | -0.2 | 3.5% | 0.3% | 3.0 | -5.3 | 9.1
CC(C)CCNC(=O)C(Cc1ccccc1)NS(=O)(=O)c1ccc2c(c1)c(=O)n(C)c(=O)n2C (configuration not stated) | -9.4%&-3.4% | -1.3&-1.3 | -0.1%&1.1% | 13.9% | 1.6&2.4 | 1.0 | 0.3
Cc1ccccc1NC(=O)c1cccc2nccnc12 | -0.2% | 1.9 | -8.6%[38.3 µM] | 11.4% | 11.3 | -6.5 | 0.4
COc1ccccc1NC(=O)NC1(C(=O)N2CCC(O)CC2)CCCCC1 | 1.4% | 0.5 | 1.2% | 20.5% | 41.0 | 10.0 | 0.9
Cc1ccc(-c2nnn(CC(=O)N(CCN3CCOCC3)C(C(=O)NC(C)(C)C)c3ccc(C)o3)n2)cc1 (configuration not stated) | x | 1.1 | 1.6% | 6.1% | 9.1 | u | -1.5
O=C1c2ccccc2C(=O)N1OCc1ccccc1[N+](=O)[O-] | x | 1.3 | 0.1% | u | -5.6 | 13.1 | 0.3
CCN1CCS/C1=C/C=C/C1=[N+](CC)CCS1 | -2.5% | 2.2 | 15.8µM* | 4.2% | -1.5 | -8.2 | 21.9
CC(C)(C)NC(=O)CC1C[C@H](C(=O)N2CCOCC2)[C@@]2(C)c3[nH]c4ccccc4c3CCN2C1=O (some centres not stated) | -1.5% | -0.7 | 0.2% | x | -8.3 | x | x
COCCN(C(=O)COC(=O)c1c(-c2ccccc2)noc1C)c1c(N)n(Cc2ccccc2)c(=O)[nH]c1=O | 0.0% | 0.0 | 1.4% | 12.0% | 0.0 | -5.1 | x
COc1ccc2cc(C(c3nnnn3CCc3ccccc3)N3CCCC(C)C3)c(=O)[nH]c2c1 (configuration not stated) | 3.6% | -0.1 | x | -18.9% | -0.8 | -7.5 | 1.9
CCCCOc1ccc(CSC(=N)N)cc1Cl | x | 0.5 | -1.7% | 5.0% | 7.5 | 3.3 | 1.8
Cc1onc(-c2ccccc2Cl)c1C(=O)NC(=S)Nc1ccccc1F | -2.3% | -0.2 | 5.9% | u | -8.7 | -2.9 | 0.5
Cc1ccc2nc(-c3ccc(N4C(=NC(=O)CCC(=O)O)SC5CS(=O)(=O)CC54)cc3)sc2c1 (configuration not stated) | u | 0.3 | -1.0% | -5.7% | -7.1 | -6.3 | 6.4
CC1(C)CC(=O)C2=C(C1)OC(N)=C(C#N)[C@@H]2c1ccccc1[N+](=O)[O-] | x | 11.4 | 0.6% | u | 9.7 | -0.6 | u
O=C(Cc1cccs1)Nc1cccc(-c2nc3ccccc3o2)c1 | -15.9% | -0.2 | 6.8% | u | -16.1 | -9.3 | 1.6
CCOc1ccc(NC(=O)CSc2nc3ccccc3nc2N2CC(C)OC(C)C2)cc1 (configuration not stated) | -24.8% | 0.2 | 8.7% | -4.5% | -6.8 | 12.5 | -2.8
O=C1c2ccccc2NC(c2cccnc2)N1c1ccccc1F (configuration not stated) | 11.2µM* | -0.4 | 0.3% | -4.4% | -0.7 | 7.3 | 0.2
COc1ccc(NC(=O)c2nn(C)c(C(=O)Nc3ccc(OC)cc3)c2[N+](=O)[O-])cc1 | 1.1% | 1.3 | 3.1% | 14.0% | -14.9 | 1.3 | -3.7

Entries of single compounds, looked up by structure. Screens in order: ClpP mod, TRPML1 agonist, PINK1 expr mod, Sfp PPTase inh, TRPML1 inh, TRPV1 PAM, Menin MLL FP FL
Entry for `CCCCOc1ccc(CSC(=N)N)cc1Cl` → x, 0.5, -1.7%, 5.0%, 7.5, 3.3, 1.8
Entry for `CC1(C)CC(=O)C2=C(C1)OC(N)=C(C#N)[C@@H]2c1ccccc1[N+](=O)[O-]` → x, 11.4, 0.6%, u, 9.7, -0.6, u

Other compounds
SMILES | ClpP mod | TRPML1 agonist | PINK1 expr mod | Sfp PPTase inh | TRPML1 inh | TRPV1 PAM | Menin MLL FP FL
Cc1ccc(N2C(=O)C3CCCN3C2=S)c(C)c1 (configuration not stated) | 2.0% | 3.9 | 16.5% | x | 16.8 | 9.8 | x
COc1ccc(CNC(=O)c2cnc3cc(C)ccn3c2=O)cc1 | -17.7%&-15.0% | -0.7&-0.5 | 1.9%&1.0% | 10.7% | 10.9&17.2 | 23.4 | 2.9
Cc1cc(=O)[nH]c2c1c(C)nn2C(C)(C)C | x | 0.6 | 0.3% | 25.0% | -4.2 | -5.0 | 8.4
COC(=O)COc1ccc(S(=O)(=O)N2CCN(c3ccc(F)cc3)CC2)cc1 | 0.9% | -0.6 | -2.4%[38.3 µM] | -3.8% | 0.5 | -15.4 | -0.7
